# Insulin prom inh = TRM-6 insulin promoter activity inhibition | TRM-6 cells (human fetal islet line), insulin promoter-eGFP reporter, imaging; reporter expression induced with tamoxifen | 0.9% of 130,000 active | AID 1273 | inhibition, % at 2 µM;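 active means inhibition above the mean plus 3 SD, with well images judged a real hit on visual review, cut at about 60% in these data, passing the limit was not always enough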
# RGS16-Gao = RGS16-Galphao interaction regulator (human); O15492+P09471; bead-based flow cytometry RGS16-Galphao binding, fluorescence; actives lie on both sides; binding response (% of control), % at 10 µM; 0.38% of 220,000 active;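 active means below 25% or above 175%, edge rows of some plates excepted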;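 further: Galphao activated by GDP with aluminum fluoride before binding; 100% = wells without compound and 0% = beads without RGS; some results beyond the cut were filed as inactive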
# Target sequence (O15492 whole entry, looked up): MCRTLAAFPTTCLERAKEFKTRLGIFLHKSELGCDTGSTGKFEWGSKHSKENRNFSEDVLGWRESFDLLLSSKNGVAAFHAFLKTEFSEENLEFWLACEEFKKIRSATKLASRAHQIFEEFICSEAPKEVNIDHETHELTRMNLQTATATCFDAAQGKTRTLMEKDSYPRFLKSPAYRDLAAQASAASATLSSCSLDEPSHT
# Target sequence (P09471 whole entry, looked up): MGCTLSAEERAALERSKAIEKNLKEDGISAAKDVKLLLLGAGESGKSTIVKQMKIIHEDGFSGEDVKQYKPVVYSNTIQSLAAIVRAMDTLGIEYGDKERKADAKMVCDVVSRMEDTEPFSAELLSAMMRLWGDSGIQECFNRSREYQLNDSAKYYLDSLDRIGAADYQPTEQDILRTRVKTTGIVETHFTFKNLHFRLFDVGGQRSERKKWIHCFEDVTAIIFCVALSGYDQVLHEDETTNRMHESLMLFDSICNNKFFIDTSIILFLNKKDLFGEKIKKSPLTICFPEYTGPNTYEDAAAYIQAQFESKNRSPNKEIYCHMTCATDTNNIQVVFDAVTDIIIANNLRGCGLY
# GALR2 ag = GALR2 (human) receptor agonism | GALR2-expressing cells, agonist activation read-out | activation, %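 (tested at 5 µM)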 | 0.48% of 140,000 active;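 active means above mean plus 3 SD of all compounds, about 5% in these data, not always enough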;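 further: 0% = vehicle buffer wells and 100% = reference agonist at full effect; tested in CHO reporter cells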
# Target sequence (O43603 whole entry, looked up): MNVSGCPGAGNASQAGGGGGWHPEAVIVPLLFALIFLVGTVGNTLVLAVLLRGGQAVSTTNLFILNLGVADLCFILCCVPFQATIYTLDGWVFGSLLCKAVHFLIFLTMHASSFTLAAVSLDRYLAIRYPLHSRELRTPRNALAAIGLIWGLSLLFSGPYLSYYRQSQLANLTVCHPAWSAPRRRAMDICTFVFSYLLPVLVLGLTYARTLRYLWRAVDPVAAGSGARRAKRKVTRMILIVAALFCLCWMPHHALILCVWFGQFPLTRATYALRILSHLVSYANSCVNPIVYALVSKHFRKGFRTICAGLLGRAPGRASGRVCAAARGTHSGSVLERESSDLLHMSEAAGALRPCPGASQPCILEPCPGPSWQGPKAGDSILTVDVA
# PKD1 inh = inhibitors of human PKD1 kinase. Q15139. PKD1 kinase fluorescence polarization assay. inhibition, %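 (about 10 µM by stock and volumes)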. 0.056% of 200,000 active. AID 797;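 active means inhibition of 50% or more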;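 further: controls were vehicle for no effect and a reference inhibitor for full effect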
# HSV replic up = increases HSV replication in cells; maximum fold increase; 0.005% of 220,000 active; HSV replication augmentation in cells, fold increase;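 active means peak rise of 1.5-fold or more in the series; tested in PC3 cells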;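 further: first round at 10 µM; read as green reporter fluorescence; hits show the peak of a series up to 25 µM; 1 = signal of infected wells without compound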
# Insulin prom inh cell count = also measured in Insulin prom inh; calls as there; normalized cell count, %; measured here: cell count, toxicity; reference of the scale not given here;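 cells exposed to compound for 48 h; stained nuclei by imaging scaled within each plate; lower means fewer cells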
# HSV replic up primary fold = recorded beside HSV replic up, whose call it bears; fold increase; compound at 10 µM; measured here: primary screen fold increase 10 uM; tested in PC3 cells;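 GFP signal in the first replicate; 1 = infected wells without compound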
# The depositor's hits bear a star; i = inactive; x = no result given. The order is random, and some 1.2% of all compounds hit somewhere here.
# The line under a structure holds: Insulin prom inh | Insulin prom inh cell count | RGS16-Gao | GALR2 ag | PKD1 inh | HSV replic up | HSV replic up primary fold
CCOC(=O)C1CCCN(c2c(N3CCc4ccccc4C3)c(=O)c2=O)C1 (stereo unspecified)
    x | x | 102 | -1.4 | 10 | x | x
Cc1ccc(-c2nn(-c3ccccc3)cc2C(=O)Nc2cccc(S(=O)(=O)N3CCOCC3)c2)cc1
    x | x | 102 | 0.1 | -7 | i | 0.94
COc1ccc(OC)c(C(=O)CSc2nnc(-c3cccnc3)n2C)c1
    0 | 128 | 104 | -1.8 | 1 | i | 0.96
CCCCP(=O)(c1ccccn1)c1ccccn1
    x | x | x | -0.1 | -8 | x | x
Cc1cc(Cl)ccc1NC(=S)NCCC(c1ccccc1)c1ccccc1
    25 | 108 | 101 | -3.3 | -4 | i | 0.89
COCCNC(=O)CN(C(=O)Cn1nnc2ccccc21)c1cc(C)cc(C)c1
    x | x | 103 | x | 2 | i | 0.91
CCNC(=O)CC1SC(=Nc2cccc3ccccc23)N(C)C1=O (stereo unspecified)
    x | x | 101 | -1.3 | 11 | i | 0.87
CNC(=O)c1ccc2nc(NC(C)=O)sc2c1
    -26 | 69 | 99 | -0.9 | -1 | i | 0.85
CC(C)(CNS(=O)(=O)c1ccc(Cl)cc1)N1CCCCC1
    0 | 101 | 98 | 0.0 | -7 | i | 1
O=C(Nc1nccs1)C1(c2ccc(Cl)cc2)CC1
    x | x | 99 | x | -7 | i | 0.98
CCNC(=O)CCSc1nnc(-c2ccncc2)o1
    x | x | 97 | x | 8 | i | 0.93
CC(=O)Nc1ccc(S(=O)(=O)N2CCN(Cc3cccc([N+](=O)[O-])c3)CC2)cc1
    x | x | 101 | x | 1 | i | 0.82
CCCNC(=S)Nc1ccccc1
    x | x | 102 | x | x | i | 1.2
O=C(c1ccccc1)c1cc(-c2ccccn2)c(N2CCOCC2)s1
    18 | 87 | 102 | -0.1 | 4 | i | 0.94
CN(/C(=N\S(=O)(=O)c1ccccc1)C(F)(F)F)c1ccccc1
    21 | 61 | 117 | -1.5 | 5 | i | 0.97
Cc1c(Cl)c([N+](=O)[O-])nn1CC(=O)NCc1cccnc1
    x | x | 121 | x | -1 | i | 1
CCOc1ccc(OCc2cccc(C(=O)N3CCCC3)c2)cc1
    -26 | 108 | 102 | -1.6 | 3 | i | 0.81
O=C(NCc1ccco1)C1CCN(S(=O)(=O)N2CCOCC2)CC1
    62 | 102 | 103 | -2.3 | 2 | i | 1.1
Cc1nc(-c2cccc(NC(=O)c3cccs3)c2)cs1
    -31 | 128 | 108 | 0.0 | 7 | i | 0.87
Cc1ccc(Cn2c(SCC(=O)Nc3cc(C)on3)nc3ccccc3c2=O)cc1
    -36 | 53 | 96 | -2.1 | 1 | i | 0.84

# (cont.)
# The line under a structure holds: Insulin prom inh | Insulin prom inh cell count | RGS16-Gao | GALR2 ag | PKD1 inh | HSV replic up | HSV replic up primary fold
O=c1c2c(-c3cccs3)csc2ncn1-n1cccc1
    -11 | 108 | 99 | -2.3 | -4 | i | 0.85
CC1CCCCN1C(=O)CSc1nnc(-c2c[nH]c3ccccc23)o1 (stereo unspecified)
    x | x | 99 | -1.3 | -16 | i | 0.83
O=C1C=C(N(CCO)Cc2ccccc2)c2ccccc2C1=O
    -55 | 71 | 114 | x | -4 | i | 0.57
CSc1nsc(SC)c1CO
    x | x | 104 | x | x | i | 1.2
Cc1ccc(-n2nc(C(=O)c3ccccc3)n3c(=O)cc(-c4ccccc4)nc23)cc1
    x | x | 104 | -1.4 | -6 | i | 0.89
CCN(CC)C(=O)C1CCN(S(=O)(=O)c2ccc(-n3cnnn3)cc2)CC1
    -17 | 83 | 58 | x | -3 | i | 1.1
CCCCNS(=O)(=O)c1ccc2nc(-c3cccnc3)cc(C(=O)NCCOC)c2c1
    x | x | 106 | x | x | i | 0.64
Cc1cn2c(-c3cccnc3)nnc2s1
    6 | 120 | 105 | -4.8 | -13 | i | 0.94
COc1cc(/C=C2\SC(=S)N(CC(=O)NC(C)(C)C)C2=O)cc(OC)c1OC
    -362 | 54 | 106 | x | -9 | i | 1
Cn1c(C(=O)N2CCC(C(N)=O)CC2)cc2c(=O)n(C)c3ccccc3c21
    x | x | 100 | -2.0 | -13 | i | 1.5
O=c1[nH]c(CSc2ncnc3sc(-c4ccccc4)cc23)nc2ccccc12
    x | x | 103 | x | x | i | 1.1
O=C(COC(=O)c1cc(=O)[nH]c2ccccc12)NC1CCCCCCC1
    x | x | 99 | x | -4 | i | 0.96
Oc1ccc(/C=N/n2c(-c3ccco3)csc2=Nc2cccnc2)c(O)c1
    -7 | 111 | 101 | 0.5 | -4 | i | 0.76
O=c1c(C=Nc2cccc(C(F)(F)F)c2)c[nH]n1-c1cccc(Cl)n1
    60 | 69 | 103 | -1.5 | 1 | i | 1
COC(=O)c1ccc(/C=N/NC(=O)CCSc2nc3ccccc3s2)cc1
    -27 | 90 | 104 | -2.4 | -19 | i | 0.79
COc1ccc(CSCCc2n[nH]c(=S)n2-c2ccccc2)cc1
    x | x | 97 | x | 7 | i | 1
CCOCCCNS(=O)(=O)c1ccc(NC(=O)c2ccccc2)cc1
    10 | 115 | 98 | -3.2 | -2 | i | 0.99
CCOP(=O)(c1c(F)c(F)c(F)c(F)c1F)C(O)c1ccccc1 (stereo unspecified)
    11 | 111 | 100 | -4.5 | 2 | i | 0.97
COc1ccc(N2CCN(C(=O)c3ccc4c(c3)OCO4)CC2)cc1
    3 | 81 | 83 | -2.6 | 1 | x | x
CC(=O)OCC1=C(C(=O)O)N2C(=O)C(NC(=O)Cn3nc(C(F)F)c(Cl)c3C)C2SC1 (stereo unspecified)
    14 | 67 | 102 | x | -5 | i | 1

# (next part)
# The line under a structure holds: Insulin prom inh | Insulin prom inh cell count | RGS16-Gao | GALR2 ag | PKD1 inh | HSV replic up | HSV replic up primary fold
COc1ccc(OC)c(NC(=O)CSc2ccc3nnc(-c4cccnc4)n3n2)c1
    55 | 95 | 106 | x | -7 | i | 1
COC(=O)Cc1cccc2c(=O)c3ccccc3oc12
    x | x | 97 | x | x | i | 1.1
O=C(CSc1nnc(Cn2nnc3ccccc32)o1)N(Cc1ccc(Cl)cc1)c1ccccc1
    x | x | 101 | -0.2 | -6 | i | 0.94
CCOC(=O)C1=C(C)n2c(s/c(=C/c3cccc([N+](=O)[O-])c3)c2=O)=NC1c1ccc(O)c(OC)c1 (stereo unspecified)
    42 | 82 | 100 | -2.1 | 6 | x | x
O=C(O)c1sccc1OCc1ccccc1
    x | x | 96 | x | -5 | i | 0.98
COc1ccc(S(=O)(=O)N(C)CC(=O)N2CCCCC2)cc1Cl
    -233 | 99 | 101 | 0.7 | -6 | i | 0.98
CCOc1cc(C)ccc1OCc1nnc(SCC(=O)c2cccc([N+](=O)[O-])c2)n1C
    46 | 131 | 91 | -2.6 | -14 | i | 0.94
Cc1cc(=O)[nH]c(SCC(=O)NCCOc2ccccc2)n1
    0 | 117 | 100 | -1.0 | -6 | i | 0.68
Cc1ccccc1NC(=O)Nc1nnc(Cc2ccc([N+](=O)[O-])cc2)s1
    x | x | 106 | 0.0 | -13 | i | 0.65
N#CCN1CCN(CC(=O)c2ccc(Br)cc2)CC1
    x | x | 96 | x | x | i | 0.9
CCCSc1nsc(NC(=O)CC)n1
    46 | 149 | 99 | x | 13 | i | 1
CCN(CC)S(=O)(=O)c1ccc2oc(C(=O)NCc3ccc(F)cc3)c(C)c2c1
    -88 | 139 | 101 | -1.1 | -7 | i | 0.87
CCNC(=O)C/C(C)=N/NC(=O)C(=O)Nc1ccc(CC)cc1
    7 | 131 | 99 | x | -2 | i | 0.97
CS(=O)(=O)c1ccc2nc(NC(=O)c3ccco3)sc2c1
    x | x | 71 | -2.2 | -3 | i | 0.91
Cc1ccc(/C=C/C(=O)O)cc1S(=O)(=O)N1CCc2ccccc2C1
    x | x | 107 | x | -6 | i | 0.97
CCCc1nc(SCC(=O)N2c3ccccc3CC2C)c2c(C)c(C)sc2n1 (stereo unspecified)
    x | x | 98 | -1.5 | -11 | i | 0.82
O=C(NCCC1=CCCCC1)c1ccc2c(=O)n3c(nc2c1)CCCCC3
    x | x | 108 | x | -2 | i | 0.78
CCOC(=O)c1sc(NC(=O)C(CC)Sc2nccn2C)nc1C (stereo unspecified)
    -61 | 119 | 100 | 0.5 | 2 | i | 1.1
COc1cccc(-n2nc(C#N)c(Cl)cc2=O)c1
    -85 | 18 | 103 | x | -3 | i | 0.62
Cc1ccc(-n2nnnc2SC(C)C(=O)Nc2ccccc2-c2ccccc2)cc1 (stereo unspecified)
    55 | 107 | 100 | -0.1 | -6 | i | 1.1

# Following part
# The line under a structure holds: Insulin prom inh | Insulin prom inh cell count | RGS16-Gao | GALR2 ag | PKD1 inh | HSV replic up | HSV replic up primary fold
CNC(=O)c1ccccc1NC(=O)c1ccco1
    -110 | 93 | 107 | -2.1 | -4 | i | 0.94
CC(=O)OC[C@H]1O[C@@H](Sc2cccc3cccnc23)[C@H](OC(C)=O)[C@@H](OC(C)=O)[C@H]1OC(C)=O
    3 | 46 | 77 | -0.3 | 4 | i | 1.1
Cc1cc(C)c2c(=O)[nH]n(C3CCCCCC3)c2n1
    x | x | 116 | x | -4 | i | 0.73
COc1ccc(CCNC(=O)c2cc(-c3ccc(Cl)c(Cl)c3)oc2C)cc1
    x | x | 106 | -0.3 | -1 | i | 0.96
O=C(Cc1ccccc1)NC1CCN(S(=O)(=O)c2ccc(C(=O)O)cc2)CC1
    -14 | 135 | 102 | -1.1 | -12 | i | 0.83
CC1Cc2ccccc2N1C(=O)CSc1nnc(Cc2ccccc2)n1CCc1ccccc1 (stereo unspecified)
    -3 | 73 | 109 | -0.6 | 2 | x | x
O=C1N(c2ccccc2)C(=Nc2ccccc2)SC12CC2
    x | x | 101 | x | x | i | 0.9
COc1cc(C(=O)NCCCNc2ccc([N+](=O)[O-])cc2)cc(OC)c1OC
    -30 | 81 | 100 | -1.0 | -9 | i | 1.1
CN1CCN(c2nc(-c3cccnc3)nc3ccccc23)CC1
    x | x | 100 | -1.1 | -10 | i | 0.61
CN(C)CC(C)(C)CNS(=O)(=O)c1cccc2nsnc12
    -25 | 107 | 90 | -1.2 | 2 | i | 0.91
CC(C)(O)[C@H](O)COc1c2occc2cc2ccc(=O)oc12
    -43 | 136 | 85 | -1.8 | -3 | i | 0.88
CC(=O)c1c(C(C)=O)c(C)n(NC(=O)c2ccncc2)c1C
    x | x | 104 | 2.2 | 2 | i | 1.1

# Compounds above that have two or more sulfur atoms, in the order listed:
# The line under a structure holds: Insulin prom inh | Insulin prom inh cell count | RGS16-Gao | GALR2 ag | PKD1 inh | HSV replic up | HSV replic up primary fold
Cc1nc(-c2cccc(NC(=O)c3cccs3)c2)cs1
    -31 | 128 | 108 | 0.0 | 7 | i | 0.87
O=c1c2c(-c3cccs3)csc2ncn1-n1cccc1
    -11 | 108 | 99 | -2.3 | -4 | i | 0.85
CSc1nsc(SC)c1CO
    x | x | 104 | x | x | i | 1.2
COc1cc(/C=C2\SC(=S)N(CC(=O)NC(C)(C)C)C2=O)cc(OC)c1OC
    -362 | 54 | 106 | x | -9 | i | 1
O=c1[nH]c(CSc2ncnc3sc(-c4ccccc4)cc23)nc2ccccc12
    x | x | 103 | x | x | i | 1.1
COC(=O)c1ccc(/C=N/NC(=O)CCSc2nc3ccccc3s2)cc1
    -27 | 90 | 104 | -2.4 | -19 | i | 0.79
COc1ccc(CSCCc2n[nH]c(=S)n2-c2ccccc2)cc1
    x | x | 97 | x | 7 | i | 1
CCCSc1nsc(NC(=O)CC)n1
    46 | 149 | 99 | x | 13 | i | 1
CS(=O)(=O)c1ccc2nc(NC(=O)c3ccco3)sc2c1
    x | x | 71 | -2.2 | -3 | i | 0.91
CCCc1nc(SCC(=O)N2c3ccccc3CC2C)c2c(C)c(C)sc2n1 (stereo unspecified)
    x | x | 98 | -1.5 | -11 | i | 0.82
CCOC(=O)c1sc(NC(=O)C(CC)Sc2nccn2C)nc1C (stereo unspecified)
    -61 | 119 | 100 | 0.5 | 2 | i | 1.1
CN(C)CC(C)(C)CNS(=O)(=O)c1cccc2nsnc12
    -25 | 107 | 90 | -1.2 | 2 | i | 0.91

# 3 entries from above, ordered by count of non-hydrogen atoms, low to high:
# The line under a structure holds: Insulin prom inh | Insulin prom inh cell count | RGS16-Gao | GALR2 ag | PKD1 inh | HSV replic up | HSV replic up primary fold
Cc1cc(C)c2c(=O)[nH]n(C3CCCCCC3)c2n1
    x | x | 116 | x | -4 | i | 0.73
CN1CCN(c2nc(-c3cccnc3)nc3ccccc23)CC1
    x | x | 100 | -1.1 | -10 | i | 0.61
COc1cc(C(=O)NCCCNc2ccc([N+](=O)[O-])cc2)cc(OC)c1OC
    -30 | 81 | 100 | -1.0 | -9 | i | 1.1
